# MARV entry inh – inhibitors of Marburg virus binding or entry into cells | Potency, µM (doses to about 49.2 µM), inactives show top-dose activity change, negative = inhibition, hits mostly inhibitors | hit rate 6.5% among 18,000 | Marburg virus pseudotype entry/binding inhibition, cell-based; control for the full effect not named in the record; many of its hits are not listed in these tables; active means well fitted inhibition curve with a large enough effect; inconclusive means small, poorly fitted or top-dose-only effect; inactive means no such curve, though single readings can be large or run the other way; tested in HEK293 cells; note: luciferase read-out
# Lassa entry – Lassa virus entry inhibition; Lassa virus pseudotyped entry inhibition, cell-based qHTS; control for the full effect not named in the record; many of its hits are not listed in these tables; Potency, µM (doses to about 49.2 µM), without a hit: at the top dose activity change, negative = inhibition, actives largely listed as inhibitors; hit rate 4.1% among 18,000; AID 720533; active = well fitted inhibition curve with a large enough effect; inconclusive = small, poorly fitted or top-dose-only effect; inactive = no such curve, though single readings can be large or run the other way; tested in HEK293 cells; note: luciferase read-out
# * hit, by the source's call; ? = inconclusive; . = not tested or not shown; & = joins results of further samples; ! = not active in a repeat; [ ] = dose if it differs, or a comment. % is set by controls: 0 for no effect and ±100 for the full control effect; potency is the fitted concentration of half-maximal effect.
SMILES,MARV entry inh,Lassa entry
O=C(NCCO)c1cn(C2CCN(Cc3c(F)cccc3Cl)CC2)nn1,2%,-11%
C[C@@H]1C[C@H]2CC[C@H](O2)[C@H](C)C(=O)O[C@@H](C)C[C@@H]2CC[C@@H](O2)[C@@H](C)C(=O)O[C@H](C)C[C@H]2CC[C@H](O2)[C@H](C)C(=O)O[C@@H](C)C[C@@H]2CC[C@@H](O2)[C@@H](C)C(=O)O1,0.63µM*,0.56µM*
CCC(Oc1ccc(Cl)cc1)C(=O)OC1CC2CCC(C1)N2C (stereo unspecified),6.3µM*,?
COc1ccc(C(=O)CC(=O)c2c(O)cc(OC)cc2OC)cc1,18%[8.59 µM],-12%[8.59 µM]
COc1ccccc1Nc1ncc(-c2ccccc2)o1,10%,2%
O=C(Nc1ccc(O)c2c(=O)cc(-c3ccccc3Cl)oc12)c1ccc(Cl)cc1Cl,-7%,-8%
CCOc1ccc(Cc2nccc3cc(OCC)c(OCC)cc23)cc1OCC,?,-9%
C[C@H]([C@H](C)N1CC(=O)NC(=O)C1)N1CC(=O)NC(=O)C1,-17%&0%,-15%&4%
NC(=O)c1ncn(C2OC(CO)C(O)C2O)c1N (stereo unspecified),10%,15%
Cc1cccc(C2=NN(c3ccc(Br)cc3)[C@@H](C(=O)N3CCOC3=O)[C@@H]2C)c1,?,-9%
CC(C)Cc1nc2cc(NS(=O)(=O)N(C)C)cc(C(=O)N3CCOCC3)c2n1C,-6%,20%
CCCC[C@]12Cc3ccccc3[C@H](O1)c1c(cc(-c3ccccc3)oc1=O)O2,?,-20%[8.59 µM]

# Structures above with a Cl atom, in the order listed:
SMILES,MARV entry inh,Lassa entry
O=C(NCCO)c1cn(C2CCN(Cc3c(F)cccc3Cl)CC2)nn1,2%,-11%
CCC(Oc1ccc(Cl)cc1)C(=O)OC1CC2CCC(C1)N2C (stereo unspecified),6.3µM*,?
O=C(Nc1ccc(O)c2c(=O)cc(-c3ccccc3Cl)oc12)c1ccc(Cl)cc1Cl,-7%,-8%

# Remaining list, next part.
SMILES,MARV entry inh,Lassa entry
O=C(O)P(=O)(O)O,1%,-5%
CCCN(CCC)S(=O)(=O)c1ccc(C(=O)O)cc1,3%,-10%
CCC(=O)OC1(C)C(=O)C=C2C=C(CCCNC(=O)OC(C)(C)C)OC=C2C1=O (stereo unspecified),-2%,0%
C=CCNC(=O)N1C2=NC(C(=O)OC)=C(C(=O)OC)[C@@H]3N(C)c4ccccc4[C@]23C[C@H]1CO,-31%&-10%[8.59 µM],4%[8.59 µM]
C[C@@H]1CC[C@H]2[C@H](C)[C@H]3CC[C@@]4(O)[C@@H]5CC(=O)[C@H]6CC(=O)CC[C@]6(C)[C@H]5C[C@H]4[C@@H]3CN2C1,?,-17%
Clc1ccc(-n2cccc2CN2CCOc3ccc(CN4CCOCC4)cc3C2)nc1,?,4%
COc1ccc(C2/C=C\[C@H](O[Si](C)(C)C(C)(C)C)[C@H](C(C)C)CC(=O)N2Cc2ccccc2)cc1 (stereo partly specified),0%,1%
COc1cc(C(=O)Oc2ccc3c(OC)c4ccoc4nc3c2OC)cc(OC)c1OC,4%,0%
CCN1C[C@]2(COC)CC[C@H](OC)[C@@]34C5C[C@@H]6[C@@H](OC)C[C@@]7(OCO[C@@]7([C@@H](O)C23)[C@@H]14)C5[C@H]6OC (stereo partly specified),2%,-3%
CCCCN1C[C@H](C)[C@@H](CC(=O)Nc2ccccc2)C1=O,11%,25%
O=C(O)c1ccc(NC2OC[C@@H](O)[C@H](O)[C@H]2O)cc1 (stereo partly specified),4%,4%
O=C(O)CCC/C=C\CC1C2CCC(O2)C1CNNC(=O)Nc1ccccc1 (stereo unspecified),1%&-13%,-4%&-19%
O=S1(=O)c2cccc(Cl)c2OC[C@H](c2ccccc2)N1Cc1ccc(Cl)cc1,?,?
c1ccc(COCCCc2cnc[nH]2)cc1,12%,14%
CCC[C@@H]1C[C@@H](C(=O)N[C@@H]([C@H]2O[C@H](SC)[C@H](O)[C@@H](O)[C@H]2O)[C@@H](C)O)N(C)C1,1%,-14%
O=C(O)c1cc(O)c2c(c1)[O][Bi][O]2,4%,5%
CC(C)=CCCC(C)=CCON=C1C[C@@H](O)[C@@H](O)[C@@H]2[C@H]3C(=O)N(C[C@@H]4CCCO4)C(=O)[C@@H]3CC[C@@H]12,-5%[8.59 µM],3%[8.59 µM]
N[C@@]1(C(=O)O)CO[C@H]2[C@H](C(=O)O)[C@H]21,3%,2%
CC12CCC3C(CCC4CC(O)CCC43C)C1CC=C2c1ccccc1 (stereo unspecified),?,3%
COc1ccc2c(c1)-c1nc(-n3ncc(C(=O)N(C)CC4CCCN(C)C4)c3C3CC3)ncc1CC2 (stereo unspecified),-23%,-8%
CC(C)C1C(=O)N(Cc2cn(CCC3OCCCO3)nn2)CCS(=O)(=O)N1Cc1ccc(-c2ccc(Cl)cc2)cc1 (stereo unspecified),?,-39%
CCn1c(-c2ccccc2F)nc2cc(C(=O)N3CCNC(=O)C3CC(=O)OC)cc(NC(C)=O)c21 (stereo unspecified),-11%,-3%
Cc1cnc(SCC2CCCO2)nc1C1CCCN(C(=O)C2=NNC(=O)CC2)C1 (stereo unspecified),-14%,-2%
CN(Cc1cc(Br)cc(Br)c1N)C1CCCCC1,?,28µM*
COc1ccc(O[C@H]2C=C[C@@H](c3ccccc3)O[C@H]2COC(=O)CCC(C)=NO[C@H](C)c2cn([C@H](CO)Cc3ccccc3)nn2)cc1,-9%[8.59 µM],-11%[8.59 µM]
COc1cccc([C@@H]2Oc3ccc(Br)cc3C(=O)[C@H]2OC(=O)NCc2ccco2)c1,59%[activator],59%[activator]
ClC1=C(Cl)C2(Cl)C3C(Cl)C=CC3C1(Cl)C2(Cl)Cl (stereo unspecified),-14%,7%
O=C(O)c1cc(=O)c2cc(Cl)ccc2[nH]1,5%,4%
CO/N=C(\C(=O)N[C@@H]1C(=O)N2C(C(=O)O)=C(COC(C)=O)CS[C@H]12)c1csc(N)n1,4%,-1%
O=C(NCCCc1ccccc1)c1cccc(NC(=O)C2CC2)c1,5%,-28%
O=S(=O)(CCNCc1ccccc1)NC1CCCCC1,-17%,-27%
Cc1cnc(SCc2ccccn2)nc1C1CCCN(C(=O)c2ccc(-c3ccccc3F)cc2)C1 (stereo unspecified),?,4%
Cc1cccc(C2=NN(c3ccc(Br)cc3)[C@@H](C(=O)N3CCOC3=O)[C@@H]2c2ccc([N+](=O)[O-])cc2)c1,-22%,-12%
Cc1oc(-c2ccccc2NC(=O)C2CCCO2)nc1CNC(=O)c1cc(F)c(F)cc1F (stereo unspecified),-8%,-16%
O=C(NCCc1ccccn1)c1cnn(-c2ncc3c(n2)-c2ccccc2CC3)c1C1CC1,-13%,-14%
O=C(O)[C@H]1CN(C/C=C/P(=O)(O)O)CCN1,-3%,-13%
CCCCC1=CC2=C(c3ccco3)C(=O)C(C)(OC(=O)c3ccc(OC)cc3)C(=O)C2=CN1C(CO)CO (stereo unspecified),4%[8.59 µM],-19%[8.59 µM]
CCCCCCCCCCCC1=C(O)C(=O)C=C(O)C1=O,7%&20%&3%,28µM*!
COc1ccc(NC(=O)C[C@H]2C(=O)N(CCc3ccccc3)C[C@@H]2CSC)cc1,13%,-15%
Cc1ccc([C@H]2C[C@@H](n3cc(C4CC4)nn3)[C@H](O)CN2C(=O)c2cccs2)cc1,?,-13%
c1ccc(C2(N3CCCC3)CCCCC2)cc1,-6%,?
Cc1ccc([C@H]2C[C@H](O)[C@@H](n3cc(-c4ccc(F)cc4)nn3)CN2CC2CCCCC2)cc1,?,.
CCC1=C(C)CN(C(=O)NCCc2ccc(S(=O)(=O)NC(=O)NC3CCC(C)CC3)cc2)C1=O (stereo unspecified),18%,-14%
CCOC(=O)CN1C(=O)NC(c2ccc(Br)cc2)C(C(C)=O)=C1C (stereo unspecified),47%[activator][8.59 µM],39%[activator][8.59 µM]
CC(C)[C@@H](CC(=O)N[C@@H]1CCCC[C@H]1C(=O)N[C@H](CC(=O)N[C@@H](CCC(=O)O)CC(=O)O)Cc1c[nH]c2ccccc12)NC(=O)C[C@H](Cc1c[nH]c2ccccc12)NC(=O)[C@@H]1CNCC[C@H]1N,-18%,4%
CC1(OC(=O)C2CCCC2)C(=O)C=C2C=C(c3ccsc3)N(Cc3ccc4c(c3)OCO4)C=C2C1=O (stereo unspecified),-8%[8.59 µM],16%[8.59 µM]
CCCCCCCc1cc2ccccc2c(=O)o1,-7%,8%
CC[C@@]1(O)CC(O)c2c(cc3c(c2O)C(=O)c2c(O)ccc(O)c2C3=O)C1C(=O)OC (stereo partly specified),-20%,6%

# Arranged by count of non-hydrogen atoms (lowest first): 13 of the compounds above.
SMILES,MARV entry inh,Lassa entry
O=C(O)[C@H]1CN(C/C=C/P(=O)(O)O)CCN1,-3%,-13%
c1ccc(C2(N3CCCC3)CCCCC2)cc1,-6%,?
CCCCCCCc1cc2ccccc2c(=O)o1,-7%,8%
O=S(=O)(CCNCc1ccccc1)NC1CCCCC1,-17%,-27%
CCCCCCCCCCCC1=C(O)C(=O)C=C(O)C1=O,7%&20%&3%,28µM*!
CCOC(=O)CN1C(=O)NC(c2ccc(Br)cc2)C(C(C)=O)=C1C (stereo unspecified),47%[activator][8.59 µM],39%[activator][8.59 µM]
COc1ccc(NC(=O)C[C@H]2C(=O)N(CCc3ccccc3)C[C@@H]2CSC)cc1,13%,-15%
CC[C@@]1(O)CC(O)c2c(cc3c(c2O)C(=O)c2c(O)ccc(O)c2C3=O)C1C(=O)OC (stereo partly specified),-20%,6%
Cc1ccc([C@H]2C[C@H](O)[C@@H](n3cc(-c4ccc(F)cc4)nn3)CN2CC2CCCCC2)cc1,?,.
CCC1=C(C)CN(C(=O)NCCc2ccc(S(=O)(=O)NC(=O)NC3CCC(C)CC3)cc2)C1=O (stereo unspecified),18%,-14%
Cc1cnc(SCc2ccccn2)nc1C1CCCN(C(=O)c2ccc(-c3ccccc3F)cc2)C1 (stereo unspecified),?,4%
CCCCC1=CC2=C(c3ccco3)C(=O)C(C)(OC(=O)c3ccc(OC)cc3)C(=O)C2=CN1C(CO)CO (stereo unspecified),4%[8.59 µM],-19%[8.59 µM]
CC(C)[C@@H](CC(=O)N[C@@H]1CCCC[C@H]1C(=O)N[C@H](CC(=O)N[C@@H](CCC(=O)O)CC(=O)O)Cc1c[nH]c2ccccc12)NC(=O)C[C@H](Cc1c[nH]c2ccccc12)NC(=O)[C@@H]1CNCC[C@H]1N,-18%,4%

# The list continues:
SMILES,MARV entry inh,Lassa entry
O=c1cc(-c2ccccc2)oc2cc(O[C@@H]3O[C@H](CO)[C@@H](O)[C@H](O)[C@H]3O)c(O)c(O)c12,3.5µM*,-22%
COC(=O)[C@H](COC(C)(C)C)NC(=O)O[C@@H]1Cc2cc(Br)ccc2O[C@H]1c1cccc(OC)c1,-19%,3%
CCOc1ccc(C[C@H]2NC(=O)CCSSC[C@@H](C(=O)N3CCC[C@H]3C(=O)N[C@@H](CCCN)C(=O)NCC(N)=O)NC(=O)[C@H](CC(N)=O)NC(=O)[C@H]([C@@H](C)O)NC(=O)[C@H]([C@@H](C)CC)NC2=O)cc1,5%,-11%
CC(C)C[C@@H](CC(=O)N[C@@H](CCC(=O)O)CC(=O)O)NC(=O)[C@@H]1CCCC[C@H]1NC(=O)C[C@H](CCCN)NC(=O)C[C@H](Cc1c[nH]c2ccccc12)NC(=O)[C@@H]1CNCC[C@H]1N,1%,-3%
COC[C@H]1OC=C[C@@H](OC)[C@@H]1OC,5%,3%
CCN(CC)C(=O)c1ccc(O)c(OC)c1,6%,-13%
N#CCCN(CC#Cc1ccccc1)OCc1ccccc1,21%[8.59 µM],-22%[8.59 µM]
CC(CNC(=O)c1cccnc1)NC(=O)c1cccnc1 (stereo unspecified),-1%,-4%
CCC1C(=O)NCCN1Cc1ccc2c(c1)CN(Cc1ccc3c(c1)OCCO3)CCO2 (stereo unspecified),34%[activator],15%
Cn1nccc1C(=O)NCC1CCC2(CCN(Cc3c(O)ccc4ccccc34)CC2)O1 (stereo unspecified),1%,4%
Cc1ccccc1N1C(=O)c2cc(S(N)(=O)=O)c(Cl)cc2N[C@H]1C,-1%[17.8 µM],17%[17.8 µM]
CCN1C(=O)CC(CC(=O)N2CCC(c3nc4ccc(F)cc4[nH]3)CC2)(c2ccccc2C)C1=O (stereo unspecified),-20%,-17%
CCOC(=O)C1=CN(CCNC(=O)OC(C)(C)C)C(=O)NC1c1ccccc1 (stereo unspecified),21%[8.59 µM],-15%[8.59 µM]
CCCCCCCC=CC1=CC2(C)CC1(C)C(CCCCCCC)CC2=O (stereo unspecified),?,4%[8.59 µM]
C=CCC1(c2ccccc2)Oc2ccccc2-c2nc3cc(Cl)c(Cl)cc3nc21 (stereo unspecified),-4%&32%[8.59 µM],5%&-23%[8.59 µM]
c1csc(CNc2nc(CN3CCCC(c4nc5ccccc5o4)C3)nc3ccccc23)c1 (stereo unspecified),-15%,-18%
O=C(c1cccc(F)c1F)N1CCOc2ccc(CN3CCN(Cc4ccccn4)CC3)cc2C1,-7%,0%
COc1ccc2c(c1)OC(=O)CC2c1ccccc1OC (stereo unspecified),13%,-9%
O=S1(=O)c2cccc(Cl)c2OC[C@H](c2ccccc2)N1Cc1cccc(Cl)c1,?,-17%
CCc1cc(-c2oncc2-c2ccc(OC)cc2)c(O)cc1OC,?,?
COC(=O)[C@@H]1CCCN1C(=O)c1c(OC)cc(=O)n2c1CCN(Cc1ccc3nsnc3c1)CC2,2%,-2%
Cc1c(CN2CCOc3c(O)cc(-c4nc5ccccc5s4)cc3C2)cnn1C,-12%,-17%
CNCC/C=C/c1cccnc1,-4%,-23%
CCCCC/C=C\C=C\[C@H](CCCCCCCC(=O)O)OO,5%&7%,-8%&-11%
C[C@@H](NS(=O)(=O)c1ccc(Br)cc1F)[C@@H](O)c1ccccc1,14%,16%

# This is a random part of the collection (roughly 7.3% active in at least one column).
